High-throughput results: PubChem, several laboratories
Vif TR-FRET = inhibitors of Vif binding to APOBEC3G peptide, primary screen, biochemical, TR-FRET, GST-Vif 1-94, biotin-A3G peptide, dose response retest (AID 1117319). TR-FRET GST-Vif / biotin-A3G peptide binding; higher % means a stronger effect; test concentration not given here; strong numbers were not always called active. inhibition, %; hits with a dose series show IC50 in µM. 260,000 compounds, 0.57% hits;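 active means above the screen mean plus three standard deviations and confirmed in dose response; inconclusive means results disagree or hit not tested in dose response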;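 further: Vif residues 1-94 fused to GST binding biotinylated APOBEC3G peptide 110-148; 0% = full assay without inhibitor and 100% = GST in place of GST-Vif; retest series ran down from 100 µM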
Ecoli growth = inhibitors of Escherichia coli growth; OD600 absorbance (concentration not given with the values); OD600, 23 h; hits give low values; AID 1053175; 330,000 compounds, 0.21% hits;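 active means OD600 absorbance below the run mean of sample wells minus 3.6 SD, in any replicate, cut at about 0.56 in these data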;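 further: stock transfer was 300 nL into about 60 µL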
HNF4A DNA FP = change in binding of human HNF4 alpha to DNA; 360,000 compounds, 0.3% hits; activity change, % at 10 µM; P41235; HNF4a-FITC DNA binding, fluorescence polarization, 1 h; in the data active means activity change above about 30%, passing the limit was not always enough;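 further: controls were the assay level and a saturating level of protein; the project sought stronger binding though the title names inhibitors; some compounds called inactive have numbers as strong as hits; positive values seem to mean higher polarization but the record does not say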
Target sequence (P41235 whole entry, looked up): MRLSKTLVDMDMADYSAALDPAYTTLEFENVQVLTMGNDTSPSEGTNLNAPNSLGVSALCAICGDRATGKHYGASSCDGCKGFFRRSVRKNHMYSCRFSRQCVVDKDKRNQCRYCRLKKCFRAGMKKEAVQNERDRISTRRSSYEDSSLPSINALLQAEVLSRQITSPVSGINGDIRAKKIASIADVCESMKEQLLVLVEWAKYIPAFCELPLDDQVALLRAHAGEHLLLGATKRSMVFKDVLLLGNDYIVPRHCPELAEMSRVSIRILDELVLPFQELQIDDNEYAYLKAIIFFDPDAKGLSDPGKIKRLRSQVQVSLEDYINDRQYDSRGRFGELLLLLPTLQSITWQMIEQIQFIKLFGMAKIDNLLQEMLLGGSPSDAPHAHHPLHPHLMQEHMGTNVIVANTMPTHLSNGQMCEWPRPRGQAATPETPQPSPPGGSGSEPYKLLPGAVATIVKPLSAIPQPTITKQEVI
LANA-H2B inh = blocks KSHV LANA binding to histone H2A/H2B; inhibition, % (no concentration beside the values); cell-free LANA-H2A/H2B peptide, fluorescence polarization; 320,000 compounds, 0.6% hits; Q9QR71; in the data active means inhibition mostly above about 10%, no sharp cut-off; inactive means mostly below about 6.7%;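 further: stock transfer was 7.5 nL into about 10 µL; 0% = median of vehicle wells and 100% = median of positive control wells; one replicate is shown; the record names a cut of 25% in any replicate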
A1 inh = inhibitors of the anti-apoptotic protein A1, read as caspase activation; MEF A1-2A-BIM cells, Caspase-Glo 3/7 luminescence, 3 h; percent of clofoctol response, vehicle zero; caspase activation, % (test concentration not listed); 330,000 compounds, 0.066% hits;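 active means over half of replicate activation scores above 10%, or exactly half above 10 with the replicate mean above 10; inconclusive means replicate mean below 10 yet half the replicates above 10; inactive means over half of replicates below 10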;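 further: wells of about 30 µL received 50 nL stock; many hits fall short of the cut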
UCH37 inh = inhibitors of human deubiquitinating enzyme UCH37. Q9Y5K5. purified proteasome/UCH37, Ub-AMC cleavage fluorescence. inhibition, % (test concentration not listed). 330,000 compounds, 0.33% hits. AID 588478;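 active means mean of two replicates above 20%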;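 further: 0% = compound-free wells with enzyme and 100% = wells lacking proteasome; stock transfer was 100 nL into about 20 µL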
Target sequence (Q9Y5K5 whole entry, looked up): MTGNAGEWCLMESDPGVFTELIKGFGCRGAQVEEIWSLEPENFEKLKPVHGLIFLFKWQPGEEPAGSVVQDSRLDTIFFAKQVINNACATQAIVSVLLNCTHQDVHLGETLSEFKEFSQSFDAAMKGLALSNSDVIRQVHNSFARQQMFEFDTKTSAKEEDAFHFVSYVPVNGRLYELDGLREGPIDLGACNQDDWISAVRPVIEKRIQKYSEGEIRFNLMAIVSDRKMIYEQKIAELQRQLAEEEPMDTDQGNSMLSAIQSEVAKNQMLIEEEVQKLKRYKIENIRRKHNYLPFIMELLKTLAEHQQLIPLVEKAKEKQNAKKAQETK
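Material: Human UCH37 enzyme supplied as purified proteasome complex | Schedule: 30 min compound-proteasome preincubation then 25 min substrate reaction, room temperature | Detection: AMC fluorescence from Ub-AMC cleavage, excitation 355 nm, emission 460 nm | Benchmarks: Wells without proteasome as full block, compound-free enzyme plus substrate as uninhibited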
Beta2AR agonist = activates human beta-2 adrenergic receptor causing internalization; AID 504454; response, % (no concentration beside the values); 340,000 compounds, 0.43% hits; Am2.2-beta2AR cells, FAP receptor internalization, flow cytometry; reference of the scale not given here;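 active means response above a set limit, near 3 SD of response in nonfluorescent compounds, cut at about 42% in these data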;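 further: stock transfer was 100 nL into about 11 µL; a reference agonist was the positive control; negative values mostly stem from fluorescent compounds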
* hit, by the source's call; ? = inconclusive; / = no result given; & = joins results of further samples.

molecule	Vif TR-FRET	Ecoli growth	HNF4A DNA FP	LANA-H2B inh	A1 inh	UCH37 inh	Beta2AR agonist
CCCc1c(C(=O)Nc2cc(C(C)(C)C)on2)cnn1-c1ccccc1	8.8%	0.684	-1.3	-0.7	0.4	3.1	-2.7
Cc1n[nH]c(=O)c2c(NC(=O)CSc3nncs3)oc(C)c12	3.0%	0.605	0.3	-10.3	0.9	4.8	-2.5
CCOCCCNC(=O)C1CCC(CNS(=O)(=O)c2ccc(Cl)cc2)CC1 (stereo not given)	9.4%	0.715	-0.7	-7.2	0.3	2.9	-0.7
CC(=O)NNc1ncnc2c1cnn2-c1ccc(C)cc1	0.1%	0.717	1.0	1.3	0.0	2.5	-0.3
Clc1cc(Br)ccc1OCCOCCN1CCOCC1	1.6%	/	1.3	0.6	0.2	29.3*	1.4
CCOC(=O)Nc1nnc(-c2ccc(OC)c(OC)c2)s1	2.5%	0.739	2.2	-5.7	-0.2	-68.3	-1.3
O=C(CCN1CCOCC1)NNC(=O)c1ccc(Cl)c([N+](=O)[O-])c1	4.0%	0.678	-0.1	-2.0	-0.8	-0.4	1.9
Cc1ccc(Cc2nnc(SCC(=O)Nc3ccccc3)n(N)c2=O)cc1	2.9%	0.7	-4.4	3.5	-0.9	-0.5	-7.6
Cc1ccc(NC(=O)CSc2nnc(CNC(=O)C34CC5CC(CC(C5)C3)C4)n2-c2ccc(F)cc2)cc1	/	0.701	2.7	0.6	0.9	3.6	-0.1
COc1ccc2ccccc2c1/C=N/NC(=O)c1cccc([N+](=O)[O-])c1	-4.5%	/	0.0	6.7	-2.6	/	-2.1
C#CCN1C(=O)C2C(C(=O)NC)C3C=CC2(O3)C1C(=O)NCc1ccc(OC)cc1 (stereo not given)	-3.8%	0.746	-3.3	0.9	-0.8	2.2	8.7
CCO[C@H]1OC(C(=O)N2CCN(C)CC2)=C[C@@H](C(C)(C)C)[C@@H]1CCCO	26.6%	/	-2.1	-3.4	-1.1	2.4	2.0
COc1ccccc1NS(=O)(=O)c1cc(NC(=O)c2ccc(Cl)nc2)ccc1N1CCCC1	/	0.705	2.0	4.4	-0.5	5.0	9.0
C=CC[C@H](CC(=O)N[C@H](CO)Cc1ccccc1)C(=O)N[C@@H](COC(=O)[C@@H](CC=C)CC(=O)OC(C)(C)C)Cc1c[nH]c2ccccc12	/	/	-0.9	18.7*	0.1	5.5	5.8
C#CCN(CC=C)C(=O)C1CCC(=O)N(CCCc2ccccc2)C1 (stereo not given)	6.1%	0.647	0.9	-5.3	0.7	4.7	-2.3
CC1CCCCN1S(=O)(=O)c1ccc(N(C(=O)c2cnccn2)C(C(=O)NC2CCCCC2)c2cccs2)cc1 (stereo not given)	5.1%	0.68	-1.7	-6.1	0.2	1.2	0.9
CCc1nnc(NC(=O)CSc2nnc(-c3ccc(OC)cc3)n2C)s1	-2.9%	0.717	0.9	-3.0	0.5	0.5	-6.2
O=C(NCc1ccccc1)N(Cc1nc2ccccc2c(=O)[nH]1)C1CCCC1	?	0.661	0.9	2.9	0.9	-86.4	-5.9
CCCN(Cc1cc2cc(C)ccc2[nH]c1=O)S(C)(=O)=O	-63.1%	0.746	-1.6	-1.6	0.1	-7.1	10.2
CCOC(=O)c1cc2c(=O)n3ccccc3nc2n(C(C)C)c1=NC(=O)c1c(-c2ccccc2Cl)noc1C	-8.0%	0.724	19.2	7.6	1.1	-45.4	14.9
CCC(C)(C)NC(=O)C(c1cccs1)N(C(=O)c1ccn[nH]1)c1cccc(OC)c1 (stereo not given)	4.8%	0.698	2.6	0.1	0.9	-0.6	1.9
CCOc1cccc2sc(N(CCCN(C)C)C(=O)c3ccc(S(=O)(=O)N(C)Cc4ccccc4)cc3)nc12	/	0.672	-2.3	-2.0	0.3	3.5	29.6
COc1ccccc1OCC(O)CNCc1ccc2c(c1)OCO2 (stereo not given)	/	0.693	-1.5	-2.3	0.2	1.8	-10.0
CCCCC1=CC2=CC(=O)C(C)(OC(=O)CC)C(=O)C2=CN1CCN1CCOCC1 (stereo not given)	12.3%	0.701	/	0.2	?	-5.0	/
CN(C)CC/C=C1/c2ccccc2Sc2c(O)cc(Cl)cc21	/	0.727	4.9	-5.5	0.4	8.6	1.5
Cc1cc([N+](=O)[O-])ccc1NCc1ccco1	/	0.642	-0.6	-10.2	-0.5	4.9	-0.7
CC(C)(C)OC(=O)N1C[C@H](O)C[C@H]1C(=O)OCC(=O)c1ccc([N+](=O)[O-])cc1	/	0.637	-0.5	4.3	0.3	2.2	11.8
O=C(C1=C[C@@H](c2ccc(Br)cc2)C[C@@H](OCCCCO)O1)N1CCN(Cc2ccccc2)CC1	15.8%	/	-4.0	3.0	1.2	0.3	2.4
O=C(O)c1ccc(N/N=C/c2cc3cc4c(cc3nc2Cl)OCCO4)cc1	13.8%	/	4.5	-3.0	-4.9	/	44.8*
NNC(=O)c1cc(S(=O)(=O)N2CCOCC2)c[nH]1	-13.0%	0.69	-0.6	-6.4	0.9	1.5	0.4
c1ccc(CCSc2nccn2-c2ccccc2)cc1	0.3%	0.727	0.5	-2.2	0.4	4.1	-3.7
Cc1ccc(C(=O)N2CCC3(CC2)Oc2ccc(Cl)cc2C(=O)C32CC(c3cccnc3)=NO2)s1 (stereo not given)	/	0.69	3.4	6.0	1.2	0.6	-16.9
Cc1cc2ccccc2n1CCNC(=O)C(C)(C)C	3.2%	0.793	-6.9	-5.0	-0.3	-0.3	-2.0
CCCCCCCN=CC1=C(O)CC(c2ccccc2)CC1=O (stereo not given)	/	0.698	-2.4	-2.8	0.0	1.6	-7.2
CC(C)N(C(=O)COC(=O)c1ccc(Cl)s1)c1ccccc1	-2.6%	0.683	1.9	1.0	1.9	1.1	-2.6
CCCCn1cc(C(C)(C)C)c(C#N)c1NC(C)=O	0.4%	0.744	1.3	-1.6	-0.4	-1.8	2.4
COc1ccc(-c2noc(CN(C)CCC3CCCCO3)n2)cc1 (stereo not given)	-3.0%	0.674	1.8	2.8	0.3	2.7	2.2
CC(=O)Nc1ccc(C(=O)NNC(=O)CCCCC(=O)NNC(=O)c2ccc(NC(C)=O)cc2)cc1	/	0.69	-0.7	-2.0	0.2	3.2	-3.4
CCOc1ccc(OCCSc2nc(C)cc(=O)[nH]2)cc1	-1.2%	0.753	-2.8	-0.5	-4.7	0.2	4.7
COc1cccc2c(N/N=C/c3ccco3)cc(C)nc12	-4.7%	/	-1.2	-3.0	-0.9	/	-4.8
CC(C)CC(COCc1ccc(F)cc1)N1CCN(C(=O)c2cccc(C(F)(F)F)c2)CCC1=O (stereo not given)	-9.2%	0.68	-4.1	-6.4	-0.1	6.3	-6.0
O=C(NC(=S)Nc1ccc(Cl)cc1)c1ccccc1	18.7%	0.679	0.2	1.6	-1.3	1.7	-5.5
CCC(=O)NNc1nc2c(C)cccc2s1	/	0.682	4.6	1.7	0.4	0.5	5.2
C=C1CCN(Cc2ccccc2)S(=O)(=O)c2ccccc21	-4.1%	0.602	-2.4	2.2	-0.9	0.9	6.4
COc1cccc(NC(=O)C(=O)N/N=C/c2cc(C)n(-c3ccc(Cl)c(Cl)c3)c2C)c1	-0.9%	/	9.1	-0.6	-0.9	/	26.6
C[C@]12CC[C@@H]3c4ccc(O)cc4CC[C@H]3[C@@H]1CC[C@@H]2OC(=O)CCC(=O)O	?	/	1.7	1.6&-28.5	1.0	0.9	1.5
O=C(CCn1c(=O)oc2ccccc21)N(Cc1ccccc1)c1ccccn1	-5.6%	0.639	2.0	-1.1	0.1	1.6	-3.6
CCn1c(SCC(=O)NC(C)c2ccccc2)nc2ccccc21 (stereo not given)	?	0.731	-0.1	0.2	-0.5	-0.4	-1.2
COC(=O)c1cc(NC(=O)c2cccc(F)c2)cc(C(=O)OC)c1	-9.4%	0.704	-2.7	-2.6	-0.4	-5.0	2.5
COC(=O)c1sccc1NC(=O)c1ccco1	/	0.713	-1.9	4.4	0.8	3.1	2.6
COc1ccccc1CCNC(=O)C(=O)NCC1CCCN1S(=O)(=O)c1ccccc1 (stereo not given)	-0.7%	0.684	4.2	1.0	0.0	4.1	1.5
COc1ccc(F)cc1C(=O)C1CCCN(C(=O)CSc2ccccn2)C1 (stereo not given)	-2.2%	0.711	2.6	6.3	-0.6	-1.1	-4.8
Cn1c(N)c(C(=O)COC(=O)[C@H](Cc2ccccc2)N2C(=O)c3ccccc3C2=O)c(=O)n(C)c1=O	15.7%	0.679	2.9	-4.9	-0.5	0.5	-1.6
Nc1sc(-c2ccccc2)cc1C(=O)N/N=C/c1ccc(Cl)cc1	-8.9%	/	8.2	-0.8	0.7	/	-0.6
N/C(=N\O)c1ccncc1	-6.0%	/	-3.1	2.5	-0.3	/	-3.5
O=C(CN1CCN(Cc2ccc(F)cc2Cl)C1=O)NCCCN1CCOCC1	2.1%	0.727	2.4	1.5	0.5	7.5	-8.7
O=C(NC1CCCCCC1)C1CCC(CNS(=O)(=O)c2ccc(Br)s2)CC1 (stereo not given)	-8.8%	0.724	8.7	1.0	1.1	1.4	-10.0
CCOc1ccc(C2=Nn3c(nnc3-c3ccccn3)SC2)cc1	20.4%	0.674	1.7	4.4	1.8	8.2	-28.2
O=C(COC(=O)CNS(=O)(=O)c1ccc(F)c(F)c1F)NC1CCCC1	-2.9%	0.664	-0.5	-2.5	0.9	1.6	2.1
O=C(NC(=S)Nc1ccc(Br)cn1)c1cccs1	-133.8%	0.711	3.4	-3.1	-0.7	3.1	-11.3

Further results.
molecule	Vif TR-FRET	Ecoli growth	HNF4A DNA FP	LANA-H2B inh	A1 inh	UCH37 inh	Beta2AR agonist
Cc1nc2ccc(NC(=S)N3CCC(C)CC3)cc2nc1C	/	0.669	2.1	-1.9	0.5	3.9	-7.3
O=C1CC(N(C(=O)c2ccco2)c2cccc(Cl)c2)C(=O)N1c1cccc(Cl)c1 (stereo not given)	-1.9%	0.676	0.5	-5.0	0.0	3.0	2.4
COC(=O)C1=C(N)Oc2cc(C)[nH]c(=O)c2C1c1cc(OC)c(OC)c(OC)c1 (stereo not given)	3.5%	0.749	0.4	1.5	0.2	5.0	5.6
COc1ccc(N=Nc2cc(C)ccc2O)cc1	-13.0%	0.714	-5.3	0.1	-7.2	8.2	0.1
O=C1CCCc2c1[nH]c1ccccc21	15.0%	0.707	0.5	2.8	-0.7	-2.2	1.3
Cc1nn(C)c(C)c1S(=O)(=O)N(CC(=O)Nc1ccc2c(c1)OCO2)c1ccc(C(C)C)cc1	17.9%	0.671	-1.9	0.9	-0.2	3.5	-3.5
CCCCSc1cc(=O)[nH]c(N)n1	-1.4%	0.793	-1.4	-14.2	-0.3	1.6	-3.0
CCc1ccc(N(C(=O)c2csnn2)C(C(=O)NC2CCCCC2)c2cccnc2)cc1 (stereo not given)	/	0.725	-3.3	1.9	0.5	5.5	-3.1
O=C(CCCOc1ccc(Cl)cc1)NCC1CCCO1 (stereo not given)	-4.0%	0.704	1.0	-3.5	-0.1	2.1	-7.6
CC(C)c1ccc(NC(=O)C2CCCN(S(=O)(=O)c3ccc4c(c3)C(C)(C)C(=O)N4C)C2)cc1 (stereo not given)	/	0.777	0.4	2.3	-0.6	4.9	7.5
COc1cccc(-c2noc(CCC(=O)NC3CCCC3)n2)c1	0.0%	0.719	1.6	-11.4	-0.4	0.9	7.8
COc1ccc(OC)c(-n2cnnn2)c1	81.0%	0.656	4.8	-1.5	-0.5	3.5	0.8
